Screening data deposited in PubChem by National Center for Advancing Translational Sciences (NCATS).
Vaccinia Venus: inhibitors of vaccinia virus (Venus reporter); Vaccinia virus Venus reporter expression, fluorescence; Potency, µM (titrated, usually from 36.5 µM), for inactives: top-dose activity change, negative = inhibition, actives largely listed as inhibitors; 330,000 tested, 0.46% active; active means well fitted inhibition curve with a large enough effect; inconclusive means small, poorly fitted or top-dose-only effect; inactive means no such curve, though single readings can be large or run the other way; tested in A549 cells; note: nearly all actives have a fitted effect of over 30% in size; inactives centre near -10
Vaccinia mCherry: vaccinia inhibition (mCherry reporter) | Vaccinia virus mCherry reporter infection, fluorescence; about a quarter of the inactives have no number | Potency, µM (series often up to 36.5 µM), inactives show at the highest dose activity change, negative = inhibition, most hits filed as inhibitors | 310,000 tested, 0.63% active | AID 720579; active = well fitted inhibition curve with a large enough effect; inconclusive = small, poorly fitted or top-dose-only effect; inactive = no such curve, though single readings can be large or run the other way; tested in A549 cells; note: nearly all actives have a fitted effect of over 35% in size; inactives centre near -10
Active calls of the source: *; i = inactive; ? = inconclusive; · = not tested or not shown; [ ] = another dose, or the depositor's remark. % is set by controls: 0 for no effect and ±100 for the full control effect; potency is the fitted concentration of half-maximal effect.

Sample of the layout:
Under each structure – Vaccinia mCherry | Vaccinia Venus
1: CCn1c(SCC(=O)NC(C)(C)C)nc(O)cc1=O
    -14% | ?
2: CCOC(=O)C(NCCc1ccccc1F)(NC(C)=O)C(F)(F)F (configuration not stated)
    -10% | 4%
3: CSCCC(NC(=O)c1ccc([N+](=O)[O-])cc1Cl)C(=O)OCC(=O)NCCCc1ccccc1 (configuration not stated)
    -18% | -9%
4: NC(=NC1CCCCC1)NS(=O)(=O)c1ccccc1
    i | -7%

Results, previewed entries included:
Under each structure – Vaccinia mCherry | Vaccinia Venus
1: CCn1c(SCC(=O)NC(C)(C)C)nc(O)cc1=O
    -14% | ?
2: CCOC(=O)C(NCCc1ccccc1F)(NC(C)=O)C(F)(F)F (configuration not stated)
    -10% | 4%
3: CSCCC(NC(=O)c1ccc([N+](=O)[O-])cc1Cl)C(=O)OCC(=O)NCCCc1ccccc1 (configuration not stated)
    -18% | -9%
4: NC(=NC1CCCCC1)NS(=O)(=O)c1ccccc1
    i | -7%
5: CC(NCC1COc2ccccc2O1)C1COc2ccccc2O1 (configuration not stated)
    -17% | -12%
6: CCCCNC(=O)c1ccc(-n2c(=S)[nH]c3ccccc3c2=O)cc1
    -3% | -13%
7: CSCCC(NC(=O)c1ccc([N+](=O)[O-])cc1Cl)C(=O)OCC(=O)NCC(F)(F)F (configuration not stated)
    -16% | -7%
8: CN(CC(=O)Nc1ccc(Cl)c(C(F)(F)F)c1)Cc1cc(=O)n2ccsc2n1
    -24% | -16%
9: COc1ccc(Nc2nc(S(=O)(=O)c3ccc(C)cc3)c(Cl)s2)cc1
    ? | ?
10: COc1ccc(C)cc1NC(=O)c1cc2c(=O)n3cccc(C)c3nc2s1
    -4% | 7%
11: CC(C)(C)c1ccc(OCCSc2nc(-c3cccs3)nc3cc(=O)[nH]n23)cc1
    -9% | -7%
12: CN(C)c1ccc(CNC(=O)c2ccc3nc(CCc4ccccc4)oc3c2)cc1
    -7%[7.34 µM] | -4%[7.34 µM]
13: N#CC(C#N)C(c1ccsc1)c1c(-c2ccccc2)[nH][nH]c1=O (configuration not stated)
    -10% | -11%
14: Clc1ccc(-c2noc3ncnc(NC4CCCCC4)c23)cc1
    -15% | -10%
15: CCOc1ccc(C(=O)NCCc2csc(-c3cccc(F)c3)n2)cc1OCC
    -9% | -6%
16: O=C(Cc1ccsc1)NCC(=O)Nc1ccc(F)c(F)c1
    i | -13%
17: COc1cccc(-n2cc(CN(C)Cc3nc(Cc4cccc(F)c4)no3)cn2)c1
    i | -17%
18: COc1cccc(-c2csc(N3CCN(CC(=O)Nc4ccc5c(c4)OCO5)CC3)n2)c1
    -8% | -18%
19: CC(C)CC(=O)[C@@H](O)Cc1ccc(O)cc1
    39%[activator] | -2%
20: COc1c(Cl)cc(Cl)cc1/C=N/NC(=O)c1nnn(-c2nonc2N)c1CN1CCC(C)CC1
    i | -1%
21: CCCc1nc(C)cc(N2CCN(c3ccccc3)CC2)n1
    ? | -19%
22: O=C(Cn1cnc2ccccc2c1=O)NCc1cccs1
    -9% | 4%
23: Cc1ccc(N(CC(O)CN2CCCC2)S(=O)(=O)c2ccc(C)cc2)cc1 (configuration not stated)
    -17% | -11%
24: COc1ccc(NC(=O)Nc2cccc(C)n2)cc1
    i | -4%
25: FC(F)(F)c1nnc2ccc(N3CCCCC3)nn12
    i[7.34 µM] | -5%[7.34 µM]
26: CCN(CC)S(=O)(=O)c1ccc(C(O)=C(C#N)c2nc3ccccc3n2C)cc1
    -2% | 0%
27: O=Cc1c(C(=O)O)n(Cc2ccccc2F)c2ccccc12
    -4% | -2%
28: CCC(=O)N1N=C2CC(C)(C)OCC2C1c1ccccc1 (configuration not stated)
    i | -11%
29: O=C(NC1CCCCCC1)C1Cc2ccccc2CN1C(=O)c1ccco1 (configuration not stated)
    -3% | -6%
30: Cn1cc(C[C@H](NC(=O)OC(C)(C)C)C(=O)N[C@@H](CO)Cc2ccccc2)c2ccccc21
    -2% | -26%
31: CC1(C)CC[C@]2(C(=O)O)CC[C@]3(C)C(=CCC4[C@@]5(C)CC[C@H](O)C(C)(C)C5[C@H](O)C[C@]43C)[C@@H]2C1 (some centres not stated)
    -22% | -6%
32: Cc1ccc(C(C(=O)NC2CCCCC2)N(Cc2ccco2)C(=O)Cn2cnc3ccccc32)cc1 (configuration not stated)
    -25% | -19%
33: Cc1ccc(N(C)S(=O)(=O)c2cccc(C(=O)OCC(=O)N(C)Cc3ccccc3)c2)cc1
    i | -16%
34: CCN(CC(=O)Nc1c(F)cccc1F)C(=O)c1ccc(-c2ccccc2)cc1
    -17% | -22%
35: O=[N+]([O-])c1cccc(-c2nnc(-c3ccc4c(c3)OCO4)o2)c1
    -9% | -6%
36: Cc1cc(C)nc(N(C#N)CC(=O)Nc2ccccc2)n1
    · | -12%
37: COc1ccc(OC)c(NC(=O)COC(=O)c2ccc(OC)c(S(=O)(=O)N3CCCC3)c2)c1
    -13% | -1%
38: O=[N+]([O-])c1cc(C(F)(F)F)ccc1NCC1CCCO1 (configuration not stated)
    -14% | -7%
39: CC(=O)N1CCN(C(=S)NCc2ccccc2)CC1
    -9% | -3%
40: O=C(CSc1nc(-c2ccc(F)cc2)[nH]c1-c1ccccc1)Nc1ccccc1
    -21% | -12%
41: Cc1ccc(C2=NCCn3nc4cc(C(F)(F)F)ccc4c32)cc1
    -8% | -14%
42: O=C(c1cccc(N2C(=O)C3CC=CCC3C2=O)c1)N1CCCc2ccccc21 (configuration not stated)
    -12% | -6%
43: COC(=O)c1c(NS(=O)(=O)c2ccccc2)csc1C
    -14% | -10%
44: N#Cc1cc(-c2ccccc2)[nH]c1-c1nccc2ccccc12
    ? | ?
45: Cc1cnnc2c1-c1nonc1CC2
    i | -3%
46: O=C(Nc1ccc(S(=O)(=O)Nc2ncccn2)cc1)c1cccc(Br)c1
    i | -10%
47: Cc1ccc(-c2[nH]c3ccccc3c2SCCNC(=O)c2ccc(S(=O)(=O)N(C)C)cc2)cc1
    -21% | -26%
48: Cc1ccc(S(=O)(=O)N(C)c2ccc(OC(=O)c3ccc(N4CCCC4=O)cc3)cc2)cc1
    -14% | -13%
49: Cc1cc(C)c(S(=O)(=O)N(CC(=O)O)C2CCCCC2)c(C)c1
    -14% | -6%
50: O=C(Cc1ccc(-c2ccccc2)cc1)NC(c1ccccc1)c1ccccc1
    -23% | -14%
51: CC(C)CCC(O)(CCC(C)C)C(=O)NNc1ccccc1
    -17% | -1%
52: CC(=O)c1ccc(N2CCN(C(=O)C3CCCN(S(=O)(=O)c4ccc(Br)s4)C3)CC2)cc1 (configuration not stated)
    ? | -15%
53: CCOC(=O)c1cnn(-c2cccc(Cl)c2)c1C1CCN(C(=O)OC(C)(C)C)CC1
    -15% | -9%
54: CC(=O)c1ccc(NC(=O)N2C3CCC2CC(O)(c2cccnc2)C3)cc1 (configuration not stated)
    -13% | -9%
55: CCCn1cnc2c(=O)oc3ccccc3c21
    -10% | 3%
56: Cc1ccc(-c2cnc(C(O)c3cccc(Cl)c3)[nH]2)cc1 (configuration not stated)
    -7% | -12%
57: CCCN(C(=O)c1c(CC)noc1C)c1c(N)n(Cc2ccccc2)c(=O)[nH]c1=O
    i | -9%
58: CCOCCCNC(=O)c1c(NC(=O)c2nc(SCC)ncc2Cl)sc2c1CCCC2
    4% | -6%
59: Cc1ccc(C(=O)COC(=O)c2cccc(NC(=O)c3ccc(Br)cc3)c2)cc1
    ? | ?
60: O=C(NCc1ccc(F)cc1)C(=O)NCC(c1ccco1)N1CCOCC1 (configuration not stated)
    -16% | -15%

2 entries from above, with one line to a screen:
58) CCOCCCNC(=O)c1c(NC(=O)c2nc(SCC)ncc2Cl)sc2c1CCCC2
59) Cc1ccc(C(=O)COC(=O)c2cccc(NC(=O)c3ccc(Br)cc3)c2)cc1

assay / entry,58,59
Vaccinia mCherry,4%,?
Vaccinia Venus,-6%,?

The list goes on.
Under each structure – Vaccinia mCherry | Vaccinia Venus
61: CCOc1ccc(C(C)=O)cc1CN1C(=O)NC2(CCCCCC2)C1=O
    -1% | 0%
62: Cc1cc(N2CCN(C)CC2)nc2ccc(NC(=O)c3ccc4c(c3)OCO4)cc12
    ? | ?
63: COc1ccccc1-c1nnc(NC(=O)OCC(C)C)s1
    · | -28%
64: Cc1nn(CC(=O)Nc2ccc(Cl)c(S(=O)(=O)N(C)C)c2)c(C)c1[N+](=O)[O-]
    -11% | -20%
65: COCCNC(=O)c1cnn2c(C(F)F)cc(-c3ccccc3)nc12
    i | -6%
66: Cc1cc(C)c2cc(C(=O)N3CCC(Cc4ccccc4)CC3)[nH]c2c1
    -10%[7.34 µM] | -8%[7.34 µM]
67: CNC(=O)C[C@H]1C(=O)N(C2CCCCC2)C[C@@H]1c1ccc(Br)cc1
    i | -4%
68: Cc1cccc(C2CN(C)CCc3c2cc(O)c(O)c3Cl)c1 (configuration not stated)
    -18% | -17%
69: COc1ccc(OC)c(N(CC(=O)NCc2ccccc2)S(=O)(=O)c2ccccc2)c1
    0% | 0%
70: C=CCn1c(SCC(=O)c2cccs2)nc2sc(C)cc2c1=O
    -29% | -22%
71: COc1ccccc1C(=O)OCC(=O)NC(C)CCc1ccccc1 (configuration not stated)
    -2% | 1%
72: COCCNC(=O)[C@@]1(Cc2ccccc2)C=C[C@@H](C)N1C(C)=O
    i | -7%
73: S=C(NCC(c1ccco1)N1CCCC1)Nc1ccccc1 (configuration not stated)
    -2% | -1%
74: Cc1ccc(C(=O)c2cn(Cc3ccccc3)c3ccccc3c2=O)cc1
    -6% | 9%
75: Cc1ccc(NC(=O)COC(=O)CN2C(=O)C3CCCCC3C2=O)cc1S(=O)(=O)N1CCOCC1 (configuration not stated)
    -14% | -14%
76: CC(=O)OC1CCC2(C)C(CC(=O)C3C2CCC2(C)C(OC(C)=O)CCC32)C1 (configuration not stated)
    -13% | -15%
77: Cc1c([N+](=O)[O-])cc(C(=O)Oc2ccc(Br)cc2C(=S)N2CCCCC2)cc1[N+](=O)[O-]
    -20% | -5%
78: CC(C)[C@H](NC(N)=O)C(=O)Nc1cccc(S(=O)(=O)N2CCOCC2)c1
    i | -3%
79: CCc1sc(C(=O)Nc2cccc(C(C)=O)c2)cc1C
    i | -20%
80: COc1cc(CNc2ncn[nH]2)ccc1OCC(=O)NC(C)(C)C
    i | 7%
81: O=C(CSc1nnc(-c2ccccc2)n1-c1ccc(Cl)cc1)N/N=C/c1ccccc1C(=O)O
    -1% | -6%
82: C/C(=N\NC(N)=S)C1C2C3CC4C5CC(C42)C1C53 (configuration not stated)
    11µM* | ?
83: CNC(=O)COC(=O)c1ccc(-c2nc3ccccc3s2)s1
    -8% | -8%
84: Cc1ccc(S(=O)(=O)CCC(=O)Oc2ccc3c(C)cc(=O)oc3c2)cc1
    -9% | -4%
85: COc1ccccc1N1C(=O)Cc2ccccc2C1=O
    -19% | -5%
86: COC(=O)c1ccccc1OCc1cc(=O)oc2ccc(C)cc12
    44%[activator] | 8%
87: Cc1cc(NC(=O)CCC(=O)N(CC(=O)NC2CCCC2)c2ccc3c(c2)OCCO3)no1
    i | -16%
88: COC(=O)[C@@]1(Cc2ccc(F)cc2)[C@H]2C(CC(=O)C(=O)N3CCCC3)C(=O)C[C@H]2CN1C(=O)c1ccccc1 (some centres not stated)
    -10% | -15%
89: CC(C)c1ccc(S(=O)(=O)N(C)C2(C)CCS(=O)(=O)C2)cc1 (configuration not stated)
    -9% | -2%
90: S=C(NCc1ccccc1)NCc1ccc2c(c1)OCO2
    2% | 7%

A different layout for part of the listing above.
No.	SMILES	Vaccinia mCherry	Vaccinia Venus
82	C/C(=N\NC(N)=S)C1C2C3CC4C5CC(C42)C1C53 (configuration not stated)	11µM*	?
83	CNC(=O)COC(=O)c1ccc(-c2nc3ccccc3s2)s1	-8%	-8%

(cont.)
Under each structure – Vaccinia mCherry | Vaccinia Venus
91: O=c1[nH]c2ccc(S(=O)(=O)N3CCN(C4CCCCC4)CC3)cc2[nH]c1=O
    -4% | -11%
92: COc1ccc(S(=O)(=O)N(C)c2ccc(C(=O)NCC3CCCO3)cc2)cc1OC (configuration not stated)
    i | -12%
93: Cc1noc(C)c1CCC(=O)NC1CCCN(Cc2ccc(Cl)cc2)C1 (configuration not stated)
    -26% | -9%
94: Cc1c(N/C=C/C(=O)C(F)(F)F)c(=O)n(-c2ccccc2)n1C
    -6% | 4%
95: Cc1ccc(-c2nnc(N3CCCCC3)c3ccccc23)cc1S(=O)(=O)N(C)C
    -9% | -10%
96: Fc1ccccc1-c1nc(NCc2ccco2)c2ccccc2n1
    -5% | -7%
97: COC(=O)C1=C(C(=O)OC)[C@@H]2N(C)c3ccccc3[C@@]23C[C@@H](CO)N=C3N1
    -20% | -13%
98: NC(Cc1cnc[nH]1)c1csc(Nc2ccc(C(F)(F)F)cn2)n1 (configuration not stated)
    -4% | -11%
99: O=C(Nc1cccc(-c2cn3cccnc3n2)c1)c1ccc(Br)o1
    -13% | -9%
100: O=C(NCc1ccco1)C1c2ccccc2Oc2ccccc21
    · | 6%
101: COc1ccc(-n2nnnc2C2CCN(S(=O)(=O)c3ccc(C)cc3)CC2)cc1
    -20% | -18%
102: CN1CCN(Cc2cccc(Oc3ccccc3)c2)CC1
    -6% | -3%
103: COc1ccc(C)cc1NC(=O)CCN1CC(C)OC(C)C1 (configuration not stated)
    i | -1%
104: CCCn1c(C)cc(C(=O)CSc2nc3ccccc3c(=O)n2Cc2ccco2)c1C
    -12% | -15%
105: O=C(Nc1ccc(Cl)cc1F)C1CC1c1ccccc1 (configuration not stated)
    -14% | 0%
106: COc1ccc(NC(=O)C2COc3ccccc3C2)cc1Cl (configuration not stated)
    -24% | -15%
107: CN(C)c1ccc(/C=N/N=C2/NC(=O)/C(=C/c3ccc([N+](=O)[O-])cc3)S2)cc1
    -21% | 2%
